Ba CapD inh: inhibitors of Bacillus anthracis CapD enzyme; purified CapD enzyme, fluorescence intensity read-out; hits give low values; some hits fall short of the stated cut; z-score (test concentration not listed); actives 0.23% (n = 140,000);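 active = z-score under -4 in either of two replicates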;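 note: stock transfer was 100 nL into about 40 µL; score is relative to mean and spread of the plate; one replicate is shown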
AID504770: growth inhibitors of E. coli YBA685 in a screen for V. cholerae RctB (chromosome II replication) inhibitors; z-score (test concentration not listed); E. coli YBA685 rctB-dependent plasmid, OD600 growth, 3 h; hits give low values; AID 504770; actives 0.27% (n = 130,000);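 active = z-score under -2 on both plates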;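 note: wells of about 30 µL received 100 nL stock; score is relative to mean and SD of the test wells; the first replicate is given; strong numbers were not always called active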
Starred values were filed as active, the others as inactive; x = not tested or not shown. Rows were taken by chance; overall some 0.37% were active at least once.

mol | Ba CapD inh | AID504770
O=C(O)Cn1ncc2c3ccccc3n(Cc3cccc(Cl)c3)c2c1=O | 0.035 | 0.25
N#CSCCCOc1ccccc1Br | 0.375 | 0.55
Cc1ccc(CN2CCN(N=Cc3ccccc3OCC(=O)O)CC2)c(C)c1 | 0.055 | -0.55
COC(=O)C1=C(C(=O)OC)SC(=C2C(=S)C(C)(C)N(C(=O)c3cccc(F)c3)c3cc(C)c(C)cc32)S1 | 1.24 | x
COc1ccc(CCNC(=O)c2ccc(-n3cccc3)cc2)cc1OC | -0.82 | x
Cc1ccc2cc(CN3CCN(C)CC3)c(Cl)nc2c1C | x | 0.15
CCC(C)C(=O)N1c2cc(C)c(C)cc2-c2c(ssc2=S)C1(C)C (centres undefined) | 0.09 | x
CCOc1ccc(C2Oc3c(OCC)cccc3C3CC(c4ccco4)=NN32)cc1 (centres undefined) | -0.42 | x
O=C(CCc1c[nH]c2ccccc12)Nc1cccnc1 | x | -0.7
CCOc1ccc(N2C(=O)CC(Sc3nc4c(cc3C#N)CCCC4)C2=O)cc1 (centres undefined) | -0.115 | x
Cc1ccc2c(c1)N(CC(=O)NC1CCC(C)CC1)C(=O)c1cccnc1O2 (centres undefined) | 0.27 | 0.8
O=C1CCC(C(=O)N2CCc3ccccc32)=NN1 | x | 0.2
O=C(c1ccccc1)C1C(=O)c2ccccc2C1=O | -2.4 | -0.7
O=C(NC1CCCCC1)NC1CCCc2ccccc21 (centres undefined) | -0.31 | -0.9
CCONC(=O)Nc1ccccc1 | x | 1.95
CC(C)c1ccc(CN(C(=O)c2nc(S(C)(=O)=O)ncc2Cl)C2CCS(=O)(=O)C2)cc1 (centres undefined) | 0.56 | -0.85
CC1(C)CC(=O)C2=C(C1)Nc1ccccc1N(C(=S)NCc1ccco1)C2c1cccnc1 (centres undefined) | -1.28 | 1.85
CCOc1cc(C2C(C(=O)OC)=C(C)NC3=C2C(=O)CC(c2ccccc2)C3)cc(Br)c1O (centres undefined) | 6 | x
Cc1cc(C)c2c3c(sc2n1)C(=O)N(c1ccccc1C)CC(=O)N3 | 0.185 | 1.1
Cc1cc(C(F)(F)F)nn1CC(=O)N1CCCCC1 | 0.235 | 1.05
O=C(/C=C/c1ccc(OCc2cccc(Cl)c2)cc1)N1CCOCC1 | -0.38 | x
CN1CCc2c(sc3[nH]c(=O)c4c(=S)nc(-c5ccco5)[nH]c4c23)C1 | 2.95 | 0.05
CCc1cc2c(SCC(=O)c3ccc(Cl)s3)ncnc2s1 | 0.05 | 0.65
Cc1ccc(S(=O)(=O)N2CCC[C@H]2C(=O)OCN2C(=O)c3ccccc3C2=O)cc1 | x | -0.9
COC(CNC(=O)c1ccc(CS(=O)(=O)c2ccccc2)o1)OC | -0.28 | -1.25
C#CCOc1ccc(Cl)c2cccnc12 | x | -0.6
O=C(c1ccc(-c2cccs2)s1)N1CCOCC1 | 27.9 | -0.85
COc1ccc(N=C2C(=O)Nc3ccc(Br)cc32)cc1 | -0.385 | -0.95
O=C1CC(c2ccc(Cl)cc2)N=C(NC(=O)c2ccc3c(c2)OCO3)N1 (centres undefined) | 4.7 | 0
CC(C)NC(=O)c1cc(-c2ccccc2)on1 | x | 0.65
Cc1ccc2c(CN3C(=O)CCC3=O)cc(=O)oc2c1 | x | -0.3
Cc1ccc(-n2c(O)c(/C=N/c3ccnn3Cc3ccco3)c3ccccc3c2=O)cc1 | x | 0.55
CCOC(=O)c1nc(Nc2ccc(Cl)cc2C)c2ccccc2n1 | 0.035 | x
CN(c1ccc(Br)cc1)S(=O)(=O)c1ccc2[nH]cc(C(=O)NCC3CCCO3)c(=O)c2c1 (centres undefined) | 1.07 | x
COc1cccc2c1OC1(CCC(C)CC1)N1N=C(c3ccco3)CC21 (centres undefined) | -1.3 | x
O=C1c2ccccc2C(O)(Cc2ccccc2)N1Cc1ccccc1 (centres undefined) | 0.065 | -0.2
CC(=O)CCCNc1nc(-c2ccc(Cl)cc2)cs1 | 0.61 | x
Clc1ccccc1CSc1nncn1NCc1ccccc1 | 0.505 | -0.2
COc1ccc(CCN2C(=O)CSC2=NC2CC2)cc1OC | 0.42 | -0.35
Cc1cccc(S(=O)(=O)NCc2csc(C)n2)c1 | 0.645 | -0.7
O=c1[nH]c2ccccc2c(-c2ccccc2)c1Sc1nc2ccccc2o1 | x | -0.5
CCOC(=O)c1cnn(-c2ccccc2)c1-c1ccccc1 | 0.185 | 1.6
CCOc1ccc(CNC(=O)COc2cc(=O)n(CC)c3ccccc23)cc1 | 0.115 | -0.05
CC(Oc1ccc(Cl)cc1Cl)C(=O)N1CCC(C(N)=O)CC1 (centres undefined) | -0.215 | -0.45
O=C(CSc1nnc2c(n1)[nH]c1ccccc12)CSc1nnc2c(n1)[nH]c1ccccc12 | 5.64 | x
Cc1cc(-c2ccc(C(C)C)cc2)n(-c2ccccn2)n1 | 0.185 | -0.5
Cc1cccc(NC(=O)CSc2nsc(SCC(=O)Nc3cccc(C)c3)c2C#N)c1 | -0.07 | 1.6
CCOc1ccccc1C1C(C(=O)OCCOC)=C(C)NC2=C1C(=O)CC(c1ccc(Cl)cc1)C2 (centres undefined) | 0.215 | x
Cc1ccc(N2C(=O)Nc3ccc(Br)cc3C2(O)C(=O)N2CCN(c3ccccn3)CC2)cc1C (centres undefined) | 2.02 | -0.5
O=C(NCCCn1ccnc1)c1cc2nc(-c3ccccc3)cc(-c3ccccc3)n2n1 | 4.81 | 0.3
CCCCS(=O)(=O)Nc1cc(C)cc(C)c1 | 1.02 | -0.1
COc1cc(OC)cc(-c2nc3ccccc3c(=O)n2NC(=O)c2cc(OC)c(OC)c(OC)c2)c1 | -0.39 | x
COc1cc(/C=C2\CCc3ccccc3C2=O)cc(OC)c1OC | -1.9 | x
O=C(O)c1cc(-n2cccc2)ccc1N1CCOCC1 | 0.415 | 1.45
O=c1ccc2cc(S(=O)(=O)N3CCCCC3)ccc2[nH]1 | -0.27 | -0.15
CC(=O)Nc1cccc(-n2nnc(SCC(=O)c3cc(-c4ccccc4)no3)n2)c1 | -0.65 | -1.35
O=C(/C=C/c1cccs1)Nc1ccc2c(c1)OCO2 | -2.9 | -1.05
C=CCc1c(C)nc(N)[nH]c1=O | 7.37 | -0.85
CC1CC(C)CN(CC(C)(C)NS(=O)(=O)c2ccc(Cl)cc2)C1 (centres undefined) | x | -0.25
COc1ccc(N2C(=O)CC(c3cn(Cc4ccccc4)c4ccccc34)C2=O)cc1 (centres undefined) | 0.105 | -0.45

Three records picked at random from those above, as already listed:
mol | Ba CapD inh | AID504770
O=C(CSc1nnc2c(n1)[nH]c1ccccc12)CSc1nnc2c(n1)[nH]c1ccccc12 | 5.64 | x
Cc1cccc(NC(=O)CSc2nsc(SCC(=O)Nc3cccc(C)c3)c2C#N)c1 | -0.07 | 1.6
Cc1ccc(N2C(=O)Nc3ccc(Br)cc3C2(O)C(=O)N2CCN(c3ccccn3)CC2)cc1C (centres undefined) | 2.02 | -0.5

Continuation:
mol | Ba CapD inh | AID504770
O=S(=O)(c1ccccc1)C1c2ccccc2Oc2ccccc21 | -0.26 | 0
Cc1ccc(-c2nc3sccn3c2C=C2C(=O)OC(C)(C)OC2=O)cc1 | 0.275 | x
Nc1cc(-c2ccco2)nn1-c1cc(C(F)(F)F)cc(C(F)(F)F)c1 | 0.36 | -0.75
CN(C)CCN=Cc1c(O)n(Cc2ccccc2)c(=O)c2ccccc12 | x | 0.7
CCC(C)NC(=O)C1CCN(C(=O)c2sccc2-n2cccc2)CC1 (centres undefined) | 0.845 | 1.2
Cc1nn(C(=O)c2ccco2)c(-c2ccccc2)c1Sc1ccccc1 | x | -0.6
CCCN(c1ccccc1OC)S(=O)(=O)c1cc(Br)cnc1N | 8.29 | -0.4
Cc1ccc(C2=NS(=O)(=O)N(C)C(C(=O)NCc3ccccn3)=C2)cc1 | 0.455 | -0.55
N#CCC(=O)c1cc(-c2ccccc2)c(C(F)(F)F)s1 | -0.89 | 1.4
CC(=O)c1ccc(-c2ccc(Cl)c(Cl)c2)o1 | 2.67 | x
CC(=O)NCCc1ccc(C(=O)O)cc1 | x | 1
COc1ccccc1NC(=O)c1ccccc1F | -0.145 | -0.7
Cc1cccc(NCc2csc(-c3ccccc3)n2)c1 | 0.055 | 0.3
CCOC(=O)C1=C(C)N=c2s/c(=C/c3ccc(N4CCOCC4)o3)c(=O)n2C1c1ccc(SC)cc1 (centres undefined) | -0.565 | x
COC(=O)CNC(=O)c1c(-c2ccccc2)noc1C | x | 1.95
CCOC(=O)c1c(CN2CCCCC2)n(-c2ccccc2)c2ccc(OC(C)=O)cc12 | -0.065 | 0.55
O=c1nc2n(-c3ccc(Br)cc3)c3cccc(Cl)c3cc-2c(=O)[nH]1 | 0.86 | 1.2
NNC(=O)CSc1n[nH]c(=O)[nH]c1=O | x | -0.65
O=C(NNC(=O)C1c2ccccc2Oc2ccccc21)c1cccc([N+](=O)[O-])c1 | 0.72 | x
Cc1c(C(=O)N2CCOCC2)cc(C(C)(C)C)n1-c1ccccc1 | -0.115 | 1.2

One compound at a time, from the list above:
`O=c1nc2n(-c3ccc(Br)cc3)c3cccc(Cl)c3cc-2c(=O)[nH]1` across the screens: Ba CapD inh: 0.86; AID504770: 1.2
`Cc1nn(C(=O)c2ccco2)c(-c2ccccc2)c1Sc1ccccc1` across the screens: Ba CapD inh: x; AID504770: -0.6

Additional results
mol | Ba CapD inh | AID504770
O=C(c1ccc(=O)[nH]c1)N1CCSC1=NCc1ccccc1 | x | -0.15
CC1(C)CC(=O)c2c(n(S(=O)(=O)c3ccc(C(C)(C)C)cc3)c3ccc(NS(=O)(=O)c4ccc(C(C)(C)C)cc4)cc23)C1 | 0.015 | x
COc1ccc(OCCNC(=O)c2cc(C)n(-c3ccccc3)c2C)cc1 | -0.425 | x
CC(NC(=O)NCc1noc2ccccc12)c1ccccc1 (centres undefined) | -0.075 | 0.85
Cc1ccc(S(=O)(=O)N2CCN(C(=O)c3c(C)nn(-c4ccccc4)c3Cl)CC2)cc1 | x | 0.3
O=S(=O)(c1ccc(-n2cccn2)cc1)N1CCCC1 | -0.215 | 0.2
CC(=O)N1c2ccccc2CCc2ccc(NC(=S)NC(=O)/C=C/c3ccccc3)cc21 | -1.25 | 2.4
CCCc1nc2ccccc2c2nc(N)nn12 | -0.405 | 1.05
CN(C)c1ccc(C=C2C(=O)OC(C)(C)OC2=O)cc1 | -0.49 | -0.55
CCN(CC)c1nc(SCc2ccccc2)nc(-c2ccc(C)cc2)c1C#N | 0.775 | x
COc1cc(CCNC(=O)OCCCc2ccncc2)cc(OC)c1 | -0.51 | x
CC(C(=O)O)n1c(C(F)(F)F)nc2ccccc21 (centres undefined) | -0.07 | -1.55
COc1cccc(CN2C(=O)C(C)N(C(=O)c3ccccc3)c3ccccc32)c1 (centres undefined) | -0.555 | x
O=C1/C(=C/NC2CC2)S(=O)(=O)N(Cc2cccc(F)c2)c2ccsc21 | 2.88 | -0.4
O=C1CCC(=O)N1c1ccc(S(=O)(=O)NCCCN2CCN(Cc3ccccc3)CC2)cc1 | 0.3 | 1.35
O=C1NC(c2ccccc2)=N/C1=C\c1ccccc1 | 8.54 | 0.95
O=C(CSc1nc2ccccc2[nH]1)NCCc1ccccc1 | -0.14 | 0.85
O=C(Cc1cccs1)Nc1nnc(-c2ccc(Cl)cc2)s1 | 3.17 | -0.15
COc1cc(OC)nc(-c2sc3ccccc3c2O)n1 | -0.63 | x
CCN(CC)C(=O)CSc1nc2c(c(=O)n(C)c(=O)n2C)n1Cc1ccccc1C | 0.195 | -0.75
Cc1nc2c(c(C)nn2-c2ccccc2)c(C)c1CCC(=O)N1CCc2ccccc21 | 0.385 | 0.15
O=C(c1ccc2nonc2c1)N1CCN(c2ccccc2)CC1 | -0.045 | 0.05
COc1ccccc1NC(=O)CCN1C(=O)c2ccccc2Sc2ncccc21 | -1.81 | 1.3
CC(C)(C)c1ccc(-c2ncccc2O)cc1 | x | -1.7
CCc1nnc(NC(=O)CCN2C(=O)NC3(CCCC3)C2=O)s1 | x | 1.5
Nc1cc(C(F)(F)F)ccc1C(=O)O | 109 | -0.9
CCc1ccc(NC(=O)CN(c2ccc3c(c2)OCO3)S(=O)(=O)c2c(C)noc2C)cc1 | 0.355 | 0.25
O=c1ccc(-c2nc(-c3ccncc3)no2)cn1Cc1ccc(Cl)cc1 | -0.08 | x
COC(=O)c1ccc(CSc2nncn2N)o1 | 0.165 | 0.25
CC1(C)CC2=NN(c3ccccc3)P(=O)(N3CCCc4ccccc43)C2=C(N2CCCC2)C1 (centres undefined) | x | 0.1
c1ccc(-n2ncc3c(NC4CCCCC4)ncnc32)cc1 | 0.9 | 0.1
CCOc1ccc(S(=O)(=O)N2CCN(C(=O)C3COc4ccccc4O3)CC2)cc1 (centres undefined) | x | 0
O=C(NC(=O)c1ccccc1O)c1ccc(C(F)(F)F)cc1 | 0.44 | 0.15
CCCC(CCC)C(=O)Nc1cccc(-c2nc3ncccn3c2C)c1 | 115 | -2.5
O=C(/C=C/c1ccco1)Nc1ccc2nn(-c3ccccc3)nc2c1 | 7.86 | -0.7
CC1=C(OS(=O)(=O)c2cc(C)c(Cl)cc2Cl)C(=O)CC1 | 0.34 | x
CCn1c(C(=O)OC)cc2c1ccn2-c1ccc(F)cc1 | x | 0.1
CCC(Sc1nc2ccccc2c(=O)n1CCc1ccc(OC)c(OC)c1)C(=O)N1CCOCC1 (centres undefined) | 0.035 | 1.2
COc1ccc(NC(=O)c2sc3nc(C)nc(N4CCN(c5ccccn5)CC4)c3c2C)c(OC)c1 | -0.435 | x
CCCOC(=O)CC1C(=O)NCCN1Cc1ccccc1 (centres undefined) | -0.7 | -0.25
C=C(C)CC(Nc1ccccc1F)c1ccco1 (centres undefined) | 0.21 | -0.6

From PubChem BioAssay
